DUX4 txn inh = blocks DUX4-driven transcriptional activation. 293T-iDUX4 ZSCAN4-Gaussia luciferase reporter, 24 h; hits give low values. activity change, negative = inhibition, % (no concentration beside the values). AID 1224904. hit rate 0.8% among 37,000;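 active = -10% or lower and over 25 points stronger than a control reporter; inconclusive = -10% or lower with a smaller gap; inactive = above -10%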;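 note: 0% = median of neutral control wells and -100% = median of positive control wells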
DUX4 txn inh difference = recorded beside DUX4 txn inh, whose call it bears; Gaussia minus Italica difference, %; measured here: selective DUX4 reporter inhibition;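 worked out from the two reporters; negative = selective loss of the DUX4 reporter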
DUX4 txn inh control = recorded beside DUX4 txn inh, whose call it bears; activity change, negative = inhibition, %; measured here: Italica tet-on control reporter;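 0 = neutral control and -100 = positive control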
Numbers without * were called inactive; ? = inconclusive; · = not tested or not shown.

SMILES	DUX4 txn inh	DUX4 txn inh difference	DUX4 txn inh control
COc1ccc(-c2ccc([C@H]3[C@H](CO)N4C(=O)CN(C(=O)Cc5ccccn5)C[C@@H]34)cc2)cc1	4	-6	10.0
O=C(C[C@@H]1CC[C@@H]2NC[C@@H](O)COC[C@H]2O1)NCCc1ccncc1	1	-6	6.5
O=C(CCN1CCCCC1)NCC[C@H]1CC[C@@H](NC(=O)Cc2cccnc2)[C@@H](CO)O1	4	2	2.2
COc1cccc(NC(=O)N2CC3(C2)[C@@H](c2ccccc2)[C@@H](CO)N3C(=O)C2CCC2)c1	4	6	-2.6
O=C(O)C[C@@H]1CC[C@H]2[C@@H](COC[C@H](O)CN2S(=O)(=O)c2ccc(F)cc2)O1	5	4	0.3
O=C(c1ccccn1)N1CC(=O)N2[C@H](C1)[C@H](c1ccc(C#CC3CCCC3)cc1)[C@@H]2CO	-6	-3	-2.5
COc1ccc(S(=O)(=O)Nc2cccc3c2O[C@H](CN(C)CC2CCCCC2)[C@H](C)CN([C@@H](C)CO)C3=O)cc1	-4	15	-19
C/C=C/c1ccc([C@H]2[C@@H](CO)N(CC3CCCC3)C23CN(C(=O)COC)C3)cc1	?	·	·
CO[C@@H]1CN(C)C(=O)c2cc(NC(=O)Nc3c(C)noc3C)ccc2OC[C@H](C)N(CC2CC2)C[C@H]1C	1	0	0.9
C[C@@H]1CCCCO[C@H](CN(C)C(=O)NC2CCCCC2)[C@H](C)CN([C@@H](C)CO)C(=O)c2cc(NC(=O)Nc3cccc4ccccc34)ccc2O1	0	0	0.1
COc1ccc2c3c([nH]c2c1)[C@H](CO)N(CC1CC1)CC31CN(C(=O)c2cccc(F)c2)C1	?	·	·
O=C(NCC1CC1)[C@@H]1[C@@H](CO)[C@@H]2Cn3c(ccc(C4=CCCC4)c3=O)[C@@H]2N1C(=O)C1CC1	10	6	3.2
CCC(=O)N1[C@H](CN(CC)C(=O)NC2CCCC2)[C@@H](c2ccccc2)[C@@H]1CO	-3	-9	6.1
O=C(C[C@@H]1C[C@H]2c3cc(NS(=O)(=O)c4ccccc4)ccc3O[C@H]2[C@H](CO)O1)N1CCOCC1	8	6	1.6
CC(C)C#Cc1cnc2c(c1)C(=O)N([C@@H](C)CO)C[C@@H](C)[C@H](CN(C)C(=O)Nc1ccccc1F)O2	-3	-1	-2.1
COCC(=O)N1[C@H](CO)[C@@H](c2ccccc2)C12CN(C(=O)c1ccccc1)C2	2	-6	7.8
CCCNC(=O)C[C@H]1CC[C@@H]2[C@H](COC[C@@H](O)CN2C(=O)C2CCOCC2)O1	-5	-4	-0.6
COC(=O)[C@H]1[C@H](CO)[C@H]2Cn3c(cccc3=O)[C@H]2N1CC1CCCCC1	2	16	-14
CN(C)C(=O)[C@@H]1[C@@H](CO)[C@@H]2Cn3c(ccc(-c4ccccc4)c3=O)[C@H]1N2CC1CCCC1	-5	-7	1.3
O=C(c1cccc(F)c1)N1C[C@@H]2[C@H](c3ccccc31)[C@H](CO)N2C(=O)C1CCOCC1	0	-2	2.1
CNC[C@H]1Oc2ncc(C#Cc3cccc(OC)c3)cc2C(=O)N([C@H](C)CO)C[C@H]1C	-1	-2	0.2
O=C(NCC1CC1)[C@H]1[C@H](CO)[C@H]2Cn3c(ccc(-c4ccccc4F)c3=O)[C@@H]1N2Cc1cncnc1	-3	-8	5.1
CC(C)NC(=O)N1C[C@H]2[C@@H](c3ccccc31)[C@@H](CO)N2C(=O)C1CCCC1	2	1	0.2
CN1C(=O)c2cc(NC(=O)Nc3ccc(F)cc3)ccc2OC[C@@H]2O[C@@H](CC(=O)NC3CCC3)CC[C@H]21	5	-3	7.5
COc1cccc(C(=O)Nc2ccc3c(c2)C(=O)N(C)[C@H]2CC[C@@H](CC(=O)NCc4ccc(F)cc4)O[C@@H]2CO3)c1	-6	-5	-1.2

Compounds from the list above that have sulfur:
SMILES	DUX4 txn inh	DUX4 txn inh difference	DUX4 txn inh control
O=C(O)C[C@@H]1CC[C@H]2[C@@H](COC[C@H](O)CN2S(=O)(=O)c2ccc(F)cc2)O1	5	4	0.3
COc1ccc(S(=O)(=O)Nc2cccc3c2O[C@H](CN(C)CC2CCCCC2)[C@H](C)CN([C@@H](C)CO)C3=O)cc1	-4	15	-19
O=C(C[C@@H]1C[C@H]2c3cc(NS(=O)(=O)c4ccccc4)ccc3O[C@H]2[C@H](CO)O1)N1CCOCC1	8	6	1.6

Further compounds
SMILES	DUX4 txn inh	DUX4 txn inh difference	DUX4 txn inh control
CCC(=O)N1[C@@H](CO)[C@@H](c2ccc(-c3ccccc3)cc2)[C@@H]1CN(CC)C(C)=O	-1	-3	2.4
O=C(C[C@@H]1CC[C@@H]2[C@H](COC[C@@H](O)CN2C(=O)Nc2ccc(F)cc2)O1)NC1CCC1	-2	-5	3.3
Cc1ccc(S(=O)(=O)Nc2ccc3c(c2)C(=O)N([C@@H](C)CO)C[C@@H](C)[C@H](CN(C)C(=O)Nc2c(C)noc2C)O3)cc1	0	2	-1.9
N#C[C@H]1[C@@H](c2ccc(C3=CCCCC3)cc2)[C@@H](CO)N1C(=O)c1cccc(F)c1	1	-2	2.9
COc1cccc(-c2ccc([C@@H]3[C@H](CO)N4C(=O)CN(C(=O)c5cccnc5)C[C@@H]34)cc2)c1	0	-3	3.2
O=C(C[C@H]1CC[C@H](NC(=O)c2ccc(F)cc2)[C@H](CO)O1)NCCc1ccccc1	4	4	-0.4
C[C@@H]1CN([C@@H](C)CO)C(=O)c2cc(C#CCN(C)C)cnc2O[C@H]1CN(C)C(=O)Nc1cccc(F)c1	3	3	0.5
CC=Cc1ccc2n(c1=O)C[C@H]1[C@H](CO)[C@@H](C(=O)NC3Cc4ccccc4C3)N(CC3CC3)[C@@H]21 (mixture of isomers)	-7	-3	-4.0
CCC(=O)N1CC[C@H]2[C@H](CO)Nc3ccc(C#Cc4ccc(OC)cc4)cc3[C@H]21	27	13	15
COCC(=O)N1CC(=O)N2[C@H](CO)[C@@H](c3ccc(C#CC4CC4)cc3)[C@H]2C1	-1	-10	9.5
O=C(NCc1ccc(F)cc1)[C@@H]1[C@@H](CO)[C@@H]2Cn3c(cccc3=O)[C@H]1N2CC1CCCC1	1	1	0.0
C[C@@H]1CN([C@H](C)CO)C(=O)Cc2cc(NS(=O)(=O)c3ccc(Cl)cc3)ccc2O[C@H]1CN(C)C(=O)Nc1ccc(C(F)(F)F)cc1	-1	-2	1.3
CCCC#Cc1ccc([C@H]2[C@@H](CO)N3CCCCN(Cc4cncnc4)C[C@H]23)cc1	-2	-14	12
O=C(Nc1ccc(F)cc1)N1CCCCN2[C@H](CO)[C@H](c3ccc(C#Cc4ccccc4)cc3)[C@@H]2C1	?	·	·
O=C(CN1CCOCC1)N1CCCCN2[C@H](C1)[C@H](c1ccc(-c3ccccc3)cc1)[C@@H]2CO	19	0	19
CC(=O)N1[C@@H]2Cn3c(ccc(-c4cccc(F)c4)c3=O)[C@H]1[C@@H](C(=O)NCCCN(C)C)[C@@H]2CO	3	3	-0.2
C[C@@H]1CN([C@H](C)CO)C(=O)c2cc(C#CC(C)(C)O)cnc2O[C@H]1CN(C)Cc1ccccn1	-6	-4	-1.7
O=C(Nc1ccccc1F)N1CCCCN2[C@@H](CO)[C@@H](c3ccc(C4=CCCC4)cc3)[C@@H]2C1	1	4	-3.1
CCCNC(=O)C[C@H]1CC[C@H]2[C@@H](COc3ccc(NC(=O)Nc4ccc(C#N)cc4)cc3C(=O)N2C)O1	2	4	-1.9
CN1c2ccc(-c3cccc(C#N)c3)cc2[C@H]2[C@H](CCN2C(=O)Nc2cc(F)ccc2F)[C@H]1CO	?	·	·
Cn1cnc(CCNC(=O)C[C@H]2CC[C@H]3[C@@H](COC[C@@H](O)CN3C(=O)C3CCCC3)O2)c1	9	7	2.0
CO[C@@H]1CN(C)C(=O)c2cc(NC(=O)c3ccc(F)cc3)ccc2OC[C@H](C)N(C(=O)CC2CC2)C[C@@H]1C	-9	-4	-5.3
COc1cccc(-c2cn(CC[C@H]3CC[C@@H](NS(=O)(=O)c4ccccc4Cl)[C@@H](CO)O3)nn2)c1	7	4	3.1
CO[C@@H](CN(C)Cc1ccc2c(c1)OCO2)[C@@H](C)CN(C(=O)Nc1ccc(F)cc1)[C@@H](C)CO	-1	-1	-0.6
COc1cccc(S(=O)(=O)N2C[C@H](O)COC[C@@H]3O[C@H](CC(=O)Nc4ccccc4)CC[C@H]32)c1	2	-3	4.3

In another format: entries from further up.
CCC(=O)N1[C@@H](CO)[C@@H](c2ccc(-c3ccccc3)cc2)[C@@H]1CN(CC)C(C)=O
- DUX4 txn inh = -1
- DUX4 txn inh difference = -3
- DUX4 txn inh control = 2.4

C[C@@H]1CN([C@H](C)CO)C(=O)c2cc(C#CC(C)(C)O)cnc2O[C@H]1CN(C)Cc1ccccn1
- DUX4 txn inh = -6
- DUX4 txn inh difference = -4
- DUX4 txn inh control = -1.7

CCCNC(=O)C[C@H]1CC[C@H]2[C@@H](COc3ccc(NC(=O)Nc4ccc(C#N)cc4)cc3C(=O)N2C)O1
- DUX4 txn inh = 2
- DUX4 txn inh difference = 4
- DUX4 txn inh control = -1.9

(listing goes on)
SMILES	DUX4 txn inh	DUX4 txn inh difference	DUX4 txn inh control
O=C(c1ccccc1F)N1CC(=O)N2[C@@H](CO)[C@@H](c3ccc(-c4cccnc4)cc3)[C@@H]2C1	1	-12	13
CCNC(=O)[C@@H]1[C@@H](CO)[C@@H]2Cn3c(ccc(-c4cncnc4)c3=O)[C@@H]2N1C(=O)NC1CCCC1	-2	0	-1.8
Cc1noc(C)c1NC(=O)Nc1ccc2c(c1)C(=O)N([C@H](C)CO)C[C@H](C)[C@H](CN(C)S(=O)(=O)c1cccs1)OCCCC[C@H](C)O2	6	4	2.3
OC[C@@H]1[C@H](c2ccc(C3=CCCCC3)cc2)[C@@H]2CN(CCC(F)(F)F)CCCCN12	?	·	·
C[C@@H]1CCCCO[C@H](CN(C)C(=O)Nc2cccc3ccccc23)[C@@H](C)CN([C@H](C)CO)C(=O)c2cc(NC(=O)c3ccncc3)ccc2O1	-4	-6	2.0
C[C@@H]1CN([C@@H](C)CO)C(=O)c2c(c3ccccc3n2C)-c2ccccc2CO[C@H]1CN(C)Cc1cccc(O)c1	-9	-12	3.1
CCCC#Cc1ccc([C@@H]2[C@H]3CN(C(=O)c4ccc5c(c4)OCO5)CCCCN3[C@H]2CO)cc1	?	·	·
CC(=O)NC[C@@H]1[C@H](c2ccc(-c3cccnc3)cc2)[C@H](CO)N1C(=O)C1CC1	-4	-6	1.2
CN(C[C@H]1[C@H](c2ccccc2)[C@@H](CO)N1CC1CC1)C(=O)c1ccccc1	-2	-1	-0.4
CCCNC(=O)N1CC(=O)N2[C@H](CO)[C@H](c3ccc(-c4ccncc4)cc3)[C@@H]2C1	11	-3	14
COc1cccc(CN2CC3(CN(CC4CCOCC4)C3)c3c([nH]c4cc(OC)ccc34)[C@H]2CO)c1	-9	-13	4.4
CC(C)COC(=O)N(C)C[C@@H]1OCc2cn(nn2)CCCC(=O)N([C@@H](C)CO)C[C@@H]1C	-5	-3	-2.6
CCCNC(=O)C[C@H]1CC[C@@H]2[C@H](COC[C@H](O)CN2C(=O)Nc2ccccc2OC)O1	5	0	4.9
COCC#Cc1ccc2c(c1)O[C@@H](CN(C)Cc1ccc3c(c1)OCO3)[C@@H](C)CN([C@H](C)CO)S2(=O)=O	4	5	-1.4
O=C(C[C@H]1CC[C@H]2[C@@H](COC[C@@H](O)CN2C(=O)Nc2ccc(Cl)cc2)O1)N1CCCCC1	8	4	4.2
NCC[C@@H]1CC[C@@H](NC(=O)NC2CCCCC2)[C@H](CO)O1	1	-4	5.5
CCC(=O)N1C[C@H]2[C@@H](c3ccccc31)[C@@H](CO)N2Cc1ccccc1Cl	1	0	1.2
COc1ccc(-c2ccc3c(c2)[C@H]2[C@H](CCN2Cc2cncnc2)[C@H](CO)N3)cc1	1	-2	3.0
CN(C)C(=O)c1cccc(-c2ccc3c(c2)[C@@H]2[C@@H](CCN2C(=O)c2ccccc2)[C@H](CO)N3C)c1	?	·	·
CCCC#Cc1ccc([C@H]2[C@H](CO)N3CCCCN(C(=O)c4ccc5c(c4)OCO5)C[C@@H]23)cc1	4	-1	5.5
O=C(c1ccncc1)N1CC[C@@H]2[C@@H](CO)Nc3ccc(C4=CCCCC4)cc3[C@@H]21	10	19	-9.1
COC(=O)C[C@@H]1C[C@@H]2c3cc(N)ccc3O[C@@H]2[C@@H](CO)O1	3	2	1.7
COc1ccc2c3c(n(C)c2c1)[C@H](CO)N(C(C)=O)CC31CN(C(=O)c2ccccc2)C1	-30*	-27*	-2.8*
Cc1ccccc1S(=O)(=O)N1CC[C@@H]2[C@H](CO)Nc3ccc(-c4ccccc4F)cc3[C@@H]21	?	·	·
C[C@H](CO)N1C[C@H](C)[C@@H](CN(C)Cc2cccc3c2OCCCO3)OCc2ccccc2-c2ccccc2C1=O	2	-2	4.6
C[C@@H]1CN([C@@H](C)CO)C(=O)CCCn2nncc2CO[C@@H]1CN(C)C(=O)Cc1ccccc1	1	2	-0.9
O=C(C[C@@H]1CC[C@H]2[C@@H](COC[C@H](O)CN2S(=O)(=O)c2ccccc2)O1)NCc1ccc(-c2ccccc2)cc1	2	7	-5.1
CN(C)CC(=O)N1[C@@H]2Cn3c(ccc(-c4cccnc4)c3=O)[C@H]1[C@@H](C(=O)NC1CCCC1)[C@@H]2CO	2	1	0.8
OC[C@@H]1[C@H](c2ccc(Br)cc2)[C@H]2CN(Cc3ccccn3)CCCCN12	?	·	·
CCNC[C@@H]1[C@@H](c2ccc(-c3ccc(F)cc3)cc2)[C@H](CO)N1S(C)(=O)=O	-3	2	-4.9

Assay outcomes from PubChem BioAssay.

Not all compounds are listed (hit frequency here may not be typical).
